Assay outcomes (PubChem BioAssay)
HNF4A DNA FP = change in binding of human HNF4 alpha to DNA | activity change, % at 10 µM | 360,000 tested, 0.3% active | HNF4a-FITC DNA binding, fluorescence polarization, 1 h | AID 1224865; in the data active = activity change above about 30%, passing the limit was not always enough;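 also: controls were the assay level and a saturating level of protein; the project sought stronger binding though the title names inhibitors; some compounds called inactive have numbers as strong as hits; positive values seem to mean higher polarization but the record does not say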
Target sequence (P41235 whole entry, looked up): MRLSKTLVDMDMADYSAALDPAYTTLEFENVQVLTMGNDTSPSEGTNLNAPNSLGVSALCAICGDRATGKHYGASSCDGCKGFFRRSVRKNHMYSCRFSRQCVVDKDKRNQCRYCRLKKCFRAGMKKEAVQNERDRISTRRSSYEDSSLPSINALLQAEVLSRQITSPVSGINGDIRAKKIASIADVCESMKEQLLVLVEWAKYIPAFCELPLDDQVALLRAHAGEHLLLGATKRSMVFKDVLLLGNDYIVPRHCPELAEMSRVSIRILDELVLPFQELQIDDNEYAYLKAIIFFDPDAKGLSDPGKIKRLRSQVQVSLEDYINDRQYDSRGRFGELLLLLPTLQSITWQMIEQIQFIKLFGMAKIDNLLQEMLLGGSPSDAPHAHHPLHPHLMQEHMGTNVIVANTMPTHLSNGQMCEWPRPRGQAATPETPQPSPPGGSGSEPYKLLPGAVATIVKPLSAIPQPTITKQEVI
rRNA inh HTS = inhibits bacterial ribosomal RNA function over humanized ribosomes. GFP signal change (wild-type ribosome), % (test concentration not listed). AID 720706. E. coli WT GFP vs humanized-ribosome RFP mutants, fluorescence, 24 h; hits give low values; DMSO median 0, no signal -100. 350,000 tested, 1.6% active;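 active = significant combined selectivity score with lowered wild-type GFP, culture density cut under 30%, mutant RFP and density less affected; inactive = any of these conditions unmet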; also: one replicate is shown; some compounds called inactive have numbers as strong as hits
Vif TR-FRET = HIV-1 Vif–A3G interaction blockers – biochemical, TR-FRET, GST-Vif 1-94, biotin-A3G peptide, dose response retest, primary screen (AID 1117319); TR-FRET GST-Vif / biotin-A3G peptide binding; higher % means a stronger effect; test concentration not given here; strong numbers were not always called active; one-dose inhibition, %; IC50 in µM for titrated hits; 260,000 tested, 0.57% active;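 active = above the screen mean plus three standard deviations and confirmed in dose response; inconclusive = results disagree or hit not tested in dose response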;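 also: Vif residues 1-94 fused to GST binding biotinylated APOBEC3G peptide 110-148; 0% = full assay without inhibitor and 100% = GST in place of GST-Vif; retest series ran down from 100 µM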
FGF22 binding = binders of recombinant human FGF22 by thermal shift | Q9HCT0 | SYPRO orange fluorescence; percent of sucrose octasulfate shift, DMSO zero | calls only at 9.99 µM | 340,000 tested, 1.5% active;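 active = melting point raised past a set limit in the mean and every replicate; inconclusive = no clear call; three in four hits are not shown here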
Target sequence (Q9HCT0 whole entry, looked up): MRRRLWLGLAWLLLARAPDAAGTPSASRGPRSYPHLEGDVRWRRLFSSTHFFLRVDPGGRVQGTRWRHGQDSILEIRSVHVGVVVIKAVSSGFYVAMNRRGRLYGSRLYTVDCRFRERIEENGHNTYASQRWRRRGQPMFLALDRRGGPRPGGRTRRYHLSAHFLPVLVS
E coli growth = inhibitors of Escherichia coli growth; OD600, 23 h; hits give low values; OD600 absorbance (test concentration not listed); 330,000 tested, 0.21% active; AID 1053175;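 active = OD600 absorbance below the run mean of sample wells minus 3.6 SD, in any replicate, cut at about 0.56 in these data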;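 also: stock transfer was 300 nL into about 60 µL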
AF4-AF9 inh = inhibitors of human MLL-AF4/AF9 interaction. AID 651704. 350,000 tested, 0.47% active. P42568. AlphaScreen, biotin-AF4 peptide binding to FLAG-AF9. inhibition, % at 10 µM;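 active = every replicate reaching a set inhibition limit, whatever the replicate mean, cut at about 25% in these data; inconclusive = mean inhibition reaches that limit but some replicates miss it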;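 also: 0% = plate neutral control median and 100% = total signal loss; the record names both 10 and 1 µM as test concentration; the first replicate is given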
ALR H2O2 inh = inhibitors of human sulfhydryl oxidase ALR | P55789 | purified ALR, DTT oxidation, H2O2 HRP-luminol luminescence | inhibition, % (no concentration beside the values) | 290,000 tested, 3.8% active | AID 485317;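 active = mean and each replicate at 75% or more; inconclusive = only one of the two met; inactive = neither met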;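 also: stock transfer was 7.5 nL into about 7.5 µL; 0% = neutral wells and 100% = wells with inactivated enzyme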
Target sequence (P55789 whole entry, looked up): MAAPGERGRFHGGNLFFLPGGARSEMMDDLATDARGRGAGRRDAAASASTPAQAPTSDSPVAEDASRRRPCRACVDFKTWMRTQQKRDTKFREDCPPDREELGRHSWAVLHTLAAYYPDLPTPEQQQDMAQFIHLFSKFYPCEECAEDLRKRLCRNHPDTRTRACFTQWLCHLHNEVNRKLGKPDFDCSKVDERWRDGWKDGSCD
rRNA inh HTS OD600 = also measured in rRNA inh HTS; calls as there; OD600 change, %; measured here: OD600 growth;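 optical density of the mix in the first replicate; 0 = DMSO median and -100 = no signal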
rRNA inh HTS RFP = also measured in rRNA inh HTS; calls as there; RFP signal change, %; measured here: RFP humanized mutant strains;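 first replicate; 0 = DMSO median and -100 = no signal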
Numbers without * were called inactive; i = inactive; ? = inconclusive; · = not tested or not shown; & = joins results of further samples. Only part of the results is shown; count on the stated rates, not on these rows.

rRNA inh HTS,FGF22 binding,Vif TR-FRET,rRNA inh HTS OD600,AF4-AF9 inh,rRNA inh HTS RFP,HNF4A DNA FP,E coli growth,ALR H2O2 inh,compound
·,·,13%,·,-2.0,·,-3.2,0.74,0,O=c1ccc2c(o1)/C(=C/C=C(Cl)Cl)CCC2
·,·,3%,·,·,·,-3.0,0.72,-2,COc1ccccc1-c1nnc(SCC(=O)N2CC(C)CC(C)C2)o1 (centres undefined)
1,i,-3%,-1,1.4,11,1.0,·,·,NC(=O)c1ncn([C@@H]2O[C@H](CNCc3cc(Cl)ccc3OCc3ccc(Cl)cc3)[C@@H](O)[C@H]2O)n1
·,·,13%,·,·,·,1.0,0.75,95*,CN(C)c1ccc(C(=O)c2ccc(N(C)C)c(N)c2)cc1N
5,i,·,0,-1.1,-1.6,·,·,·,CC(=O)Nc1ccc2c(c1)C(=O)N(C)[C@@H]1CC[C@H](CC(=O)NCCCN3CCOCC3)O[C@H]1CO2
4,i,·,3,-0.1,-1.5,-0.6,0.64,5,Cc1cccc(NC(=O)CCn2c(=O)oc3ccccc32)c1
-3,i,·,-9,-19,2.7,·,·,·,C[C@H](CO)N1C[C@H](C)[C@H](CN(C)S(=O)(=O)c2ccccc2)Oc2ncc(C#Cc3ccc(C(F)(F)F)cc3)cc2C1=O
8,i,?,1,-5.1,-0.4,24,0.68,1,Cc1cc(C(=O)CN2C(=O)C(=O)N(C)C2=O)c(C)n1-c1cccc(S(=O)(=O)N2CCOCC2)c1
-37,i,2%,-60,0.2,-4.5,1.0,0.77,-4,CCc1ccc(C2CC(=O)NC(SCC(=O)OC(C)C)=C2C#N)cc1 (centres undefined)
-3,i,·,-7,-1.9,0.7,·,·,·,CCN1[C@H](C(=O)NCCc2ccccc2)[C@@H](CO)[C@@H]2Cn3c(ccc(C4=CCCC4)c3=O)[C@@H]21
·,·,-4%&-1%,·,-0.9,·,0.4,0.75,9,CC(=O)NC1C(OCCOc2ccc(Cl)cc2Cl)OC(COC(C)=O)C(OC(C)=O)C1OC(C)=O (centres undefined)
6,i,·,11,-0.2,-0.4,1.5,·,·,CC(=O)Oc1ccccc1Cn1c(C)c(C(=O)NCc2cccc([N+](=O)[O-])c2)sc1=O
·,·,10%,·,·,·,-0.4,0.6,-2,CC(C)CCNC(=O)NC(=O)CSc1nnc2ccccn12
6,i,19%,10,-2.4,1.0,-1.7,0.68,16,Cn1c(=O)c2[nH]c(N3CCN(c4cccc(O)c4)CC3)nc2n(C)c1=O
4,i,·,-21,-0.6,0.5,2.7,0.67,99*,Cc1csc(NC(=O)CSC2=NCCS2)n1
·,·,·,·,·,·,0.6,0.69,-10,O=c1[nH]c(SCc2nc3ccccc3c(=O)n2-c2ccccc2C(F)(F)F)nc2ccccc12
·,·,15%,·,·,·,1.9,0.69,-4,CCCn1c(SCC(=O)Nc2nccs2)nnc1-c1cccnc1
-1,i,·,-4,-9.4,-3.4,·,·,·,C[C@@H](NC(=O)C[C@H]1C=C[C@H](NC(=O)C2CCC2)[C@@H](CO)O1)c1ccccc1
2,·,3%,-3,-25,-2.4,8.8,0.62,-5,O=C(Nc1cccnc1)C1CCN(S(=O)(=O)c2cccc3nonc23)CC1
2,i,·,6,0.2,6.0,1.6,0.61,·,COc1ccc(-c2nc3c(c(SCC(=O)N4CCOCC4)n2)Cc2c(CO)cnc(C)c2O3)cc1
·,·,0%,·,·,·,-0.4,0.65,0,CCCCOc1ccc(C(=O)O)cc1
·,·,22%,·,·,·,1.6,0.64,2,O=C(Nc1ncc2c(n1)-c1ccccc1CC2)c1cccc(Cl)c1
-9,i,-2%,-11,0.9,-3.2,6.0,0.72,-8,CS(=O)(=O)N1N=C(c2cccs2)CC1c1ccc(Cl)o1 (centres undefined)
0,i,·,8,1.5,-0.7,·,·,·,C[C@H](O)C#Cc1ccc([C@@H]2[C@@H](CO)N3CCCCN(C(=O)c4cccc(F)c4)C[C@H]23)cc1
-1,i,·,1,-1.9,-0.2,·,·,·,O=C(C[C@@H]1C[C@@H]2c3cc(NC(=O)Nc4ccccc4)ccc3O[C@@H]2[C@@H](CO)O1)NCC1CC1
·,·,-2%,·,·,·,3.8,0.69,2,COC(=O)c1ccc(CS(=O)(=O)c2ccc(C)cc2)cc1
3,i,·,11,-1.3,0.1,·,·,·,O=C(C1CC1)N1[C@@H](CO)[C@@H]2c3ccccc3NC[C@@H]21
12,i,-8%,14,-26,3.1,1.4,0.71,·,O=C(CNCC1CCCO1)Nc1ccc([N+](=O)[O-])cc1C(=O)Nc1ccccc1F (centres undefined)
2,i,·,-1,-6.9,0.7,·,·,·,Cc1cc(C(=O)Nc2cccc3c2O[C@H](CN(C)Cc2ccc(C(=O)O)cc2)[C@H](C)CN([C@@H](C)CO)C3=O)n(C)n1
10,i,·,1,14,4.6,·,·,·,CNC[C@H]1Oc2cc(C#Cc3ccccc3)ccc2S(=O)(=O)N([C@H](C)CO)C[C@@H]1C
·,·,4%,·,·,·,-2.5,0.65,4,OC(COc1ccc2c(c1)CCC2)CN1CCN(c2cccc(Cl)c2)CC1 (centres undefined)
·,·,5%,·,·,·,-3.3,0.69,6,Nc1c(-c2ccc(F)cc2)cnc2ncnn12
·,·,0%,·,·,·,1.4,0.74,-2,COCCCNC(=O)c1cc(C)nc2ccc(F)cc12
-1,i,·,7,6.1,6.7,-1.9,·,·,Cn1ccc2c(N(Cc3ccccc3)Cc3ccccc3)cc3c(c21)C1CCC3C1 (centres undefined)
-5,i,-2%,-9,-1.7,-2.0,-4.8,0.68,2,CC(C)(C)n1nc2c(c1NC(=O)COc1ccc(Cl)cc1)CS(=O)(=O)C2
·,·,-8%,·,·,·,0.1,0.73,-4,Cc1ccccc1P(=O)(CO)c1ccccc1C
-23,i,·,-25,7.0,-0.9,1.6,·,·,COc1ccc(C(C)(NC(C)=O)c2nc(/C=C/c3ccccc3)cs2)cc1 (centres undefined)
0&-2,i,·,-6&9,-2.0&-3.8,3.2&11,·,·,·,C[C@@H]1CN([C@@H](C)CO)C(=O)CCCn2cc(nn2)CO[C@H]1CN(C)C(=O)Nc1cccc2ccccc12
·,·,7%,·,·,·,-0.9,0.72,·,ON=C1CCN(c2ncc(C(F)(F)F)cc2Cl)CC1
6,i,-1%,9,3.6,-1.1,-2.9,0.7,-6,CC(C)(C)c1nc(NCC2CCCO2)c2nnn(Cc3ccccc3)c2n1 (centres undefined)
-1,i,·,-2,-1.5,2.5,·,·,·,N#C[C@H]1[C@@H](c2ccc(C3=CCCC3)cc2)[C@@H](CO)N1C(=O)C1CCC1
·,·,·,·,·,·,-1.0,0.65,15,N#Cc1c(-c2ccc(Cl)cc2)c(C#N)c(=O)n(N)c1N
·,·,-1%,·,·,·,5.6,0.65,98*,O=C(O)CSc1c(-c2ccccc2)[nH]c2ccccc12
12,i,-2%,10,-2.7,-1.1,-1.7,0.68,-7,O=c1cc(-c2ccccc2)[nH]c2cc(Cl)ccc12
·,·,30%,·,·,·,-3.3,0.71,5,COc1ccccc1NS(=O)(=O)c1ccc2oc(SCc3ccc(C#N)cc3)nc2c1
5,i,5%,8,-1.5,0.2,-0.3,0.69,-12,CNC(=S)N(CCN(C)C)Cc1cc2cc3c(cc2[nH]c1=O)OCO3
2,i,·,-2,-3.5,-0.7,·,·,·,C[C@@H]1CN([C@@H](C)CO)S(=O)(=O)c2ccc(C#C[C@@H](C)O)cc2O[C@@H]1CN(C)C
·,·,31%,·,·,·,1.9,0.68,-9,NCCCCCc1nnc(SCc2cccc(Cl)c2)o1
-1,i,·,-7,9.3,1.6,·,·,·,C[C@@H]1CN([C@@H](C)CO)C(=O)c2cc(NS(=O)(=O)c3ccc(Cl)cc3)ccc2O[C@@H](C)CCCCO[C@H]1CN(C)CC1CC1
-11,i,-5%,-19,-5.1,-1.3,0.0,0.67,-10,O=C(c1ccccc1SCc1ccccc1)N1CCCCCC1
0,·,·,-6,0.7,6.4,0.7,·,·,CC(=O)N1c2ccccc2N=C(c2ccc3c(c2)OCO3)C1C(=O)NCc1ccccc1 (centres undefined)
1,i,·,3,18,2.8,1.2,·,-6,C1=C(c2sc3ccccc3c2-c2ccc(OCCN3CCOCC3)cc2)CCCC1
17,i,·,15,-1.2,4.6,0.3,0.68,-6,CCc1ccc(NC(=O)CS(=O)CC(=O)N2CCN(c3ccccc3F)CC2)cc1 (centres undefined)
9,i,·,6,-5.1,-1.1,0.6,0.66,-5,CC(=O)NC(=S)Nc1ccc2oc(=O)ccc2c1
5,i,-3%,-20,7.4,-6.3,-0.1,0.68,·,Cc1cc(C(=O)C(C(c2ccccc2)N2CCOCC2)N2CCOCC2)ccc1Cl (centres undefined)
0,i,·,6,-2.4,0.5,-0.7,0.67,59,CSCC(=O)N1CCCC(N2CCN(c3ccc(F)cc3)CC2)C1 (centres undefined)
-5,i,·,-28,5.3,1.7,0.7,0.68,-2,COc1cc2c(cc1OC)CN(CC(=O)Nc1ccccc1C(=O)NCc1ccccc1)CC2
10,·,-8%,12,-0.5,0.0,1.2,0.67,-2,COc1cccc(C(=O)NCCCn2ccnc2)c1
10,i,-3%,2,-48,5.7,4.6,·,-9,COCCCN1C(=O)CS/C1=N\S(=O)(=O)c1ccccc1

Whole records as entered above.
Results for OC(COc1ccc2c(c1)CCC2)CN1CCN(c2cccc(Cl)c2)CC1 (centres undefined) = rRNA inh HTS = ·; FGF22 binding = ·; Vif TR-FRET = 4%; rRNA inh HTS OD600 = ·; AF4-AF9 inh = ·; rRNA inh HTS RFP = ·; HNF4A DNA FP = -2.5; E coli growth = 0.65; ALR H2O2 inh = 4
Results for NCCCCCc1nnc(SCc2cccc(Cl)c2)o1 = rRNA inh HTS = ·; FGF22 binding = ·; Vif TR-FRET = 31%; rRNA inh HTS OD600 = ·; AF4-AF9 inh = ·; rRNA inh HTS RFP = ·; HNF4A DNA FP = 1.9; E coli growth = 0.68; ALR H2O2 inh = -9
Results for CC(=O)N1c2ccccc2N=C(c2ccc3c(c2)OCO3)C1C(=O)NCc1ccccc1 (centres undefined) = rRNA inh HTS = 0; FGF22 binding = ·; Vif TR-FRET = ·; rRNA inh HTS OD600 = -6; AF4-AF9 inh = 0.7; rRNA inh HTS RFP = 6.4; HNF4A DNA FP = 0.7; E coli growth = ·; ALR H2O2 inh = ·
